Bioassay records as filed in PubChem.
Bst PK mod = Pyruvate Kinase; partly purified Bacillus stearothermophilus pyruvate kinase, luminescence ATP production; ribose 5-phosphate activator present at AC10; Potency, µM; hit rate 1.2% among 51,000; AID 361, 2006; in the data active means potency below about 11 µM; inconclusive means mostly about 12 µM to 25 µM; inactive means weaker than that;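 the screen sought inhibitors and activators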;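 also: potency is read from the fitted curve at half-maximal effect; scaled between full activation by ribose 5 phosphate and full inhibition by luteolin; about four in five hits inhibit and the cells do not say which; series up to 57 µM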
TsaE inh = qHTS Assay for Inhibitors of YjeE. purified YjeE, fluorescence polarisation of a bound ADP probe. Potency, µM. hit rate 0.05% among 71,000. AID 605, 2007; active = well fitted falling curve; inconclusive = weaker or top-dose-only fall, or a rising curve; inactive = flat or poorly fitted curve;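 also: top concentration of the series not given in the record; excess ADP was the control for the full effect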
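Purified YjeE (10 uM) with BODIPY Texas Red-labeled ADP probe (2 uM); compounds pin-transferred, 15 min at room temperature. Binding inhibition read as decreased fluorescence polarization; ADP titration as control.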
Active calls of the source: *.

Results for O=C(CCCn1c(=S)[nH]c2cc3c(cc2c1=O)OCO3)N1CCN(c2ccc(Cl)cc2)CC1 ?
Bst PK mod: >57; TsaE inh: inactive

Results for CCCC(C)CO (stereo not drawn) ?
TsaE inh: inactive

How did O=C(c1ccc(S(=O)(=O)N2CCCC2)cc1)N1CCN(Cc2ccc3c(c2)OCO3)CC1 do in these assays?
Bst PK mod: >57; TsaE inh: inactive

What do the screens show for `COc1cccc(-n2nnnc2SCC(=O)NCc2ccc3c(c2)OCO3)c1`?
Bst PK mod: >11; TsaE inh: inactive

How did CN(/N=C\c1ccccc1O)c1ccc2ccccc2n1 do in these assays?
TsaE inh: inactive

How did COc1ccc(OC)c(-n2c(SCC(C)=O)nnc2-c2cccc(S(=O)(=O)N(C)C)c2)c1 do in these assays?
Bst PK mod: >57; TsaE inh: inactive

What do the screens show for `C=CCn1c(=O)c2ccccc2n2c(SCC(=O)Nc3cc(C)on3)nnc12`?
Bst PK mod: >57; TsaE inh: inactive

Results for COc1cccc(-c2nc(-c3ccc(NC(=O)c4cccnc4)cc3)no2)c1 ?
Bst PK mod: >57; TsaE inh: inactive

Results for C=CCNS(=O)(=O)c1nc(C)c(Cl)c(C)c1C#N ?
Bst PK mod: inactive; TsaE inh: inactive

Results for Cc1cc(C)n2c3c(c(C#N)c2n1)CCCC3 ?
Bst PK mod: >57; TsaE inh: inactive

How did CO[C@H]1OC[C@@]2(C)[C@@H]3C4=C(CN2C(=O)OC(C)(C)C)[C@H](C)[C@H](CO)[C@H](CO)[C@H]4CC[C@H]13 do in these assays?
TsaE inh: inactive

How did Cn1cnc([N+](=O)[O-])c1Sc1nnc(-c2cccnc2)n1C do in these assays?
TsaE inh: inactive

What do the screens show for `O=C(Cc1ccccc1)Nc1ccc(N2CCOCC2)cc1N1CCOCC1`?
Bst PK mod: >57; TsaE inh: inactive

Results for O=C(O)C1C2CCC(C2)C1C(=O)Nc1cc(F)ccc1F (stereo not drawn) ?
Bst PK mod: >57; TsaE inh: inactive

How did COc1ccc(NC(=O)CSc2nnc(Cc3cccn3C)n2-c2ccc(F)cc2)cc1OC do in these assays?
TsaE inh: inactive

What do the screens show for `COc1ccc(-n2c(=O)cc(N3CCOCC3)[nH]c2=O)cc1`?
Bst PK mod: >57; TsaE inh: inactive

How did CCOc1ccc(N2C(=O)NC(Cc3c[nH]c4ccccc34)C2=O)cc1 (stereo not drawn) do in these assays?
Bst PK mod: >57; TsaE inh: inactive

Results for Cc1ccc2nc(CCc3nc4ccc(C)cc4o3)oc2c1 ?
Bst PK mod: >57; TsaE inh: inactive

Results for COc1ccc(N(C)C(=O)Nc2ccc3c(c2)nnn3C)cc1 ?
Bst PK mod: >57; TsaE inh: inactive

Results for Cc1nc(=O)c(-c2ccccc2)c(C)n1-c1cccc(C(=O)O)c1 ?
Bst PK mod: >57; TsaE inh: inactive

How did CCN(CC)C(=O)C(C)N(C#N)c1nc(SC)nc(N(C)C)n1 (stereo not drawn) do in these assays?
Bst PK mod: >57; TsaE inh: inactive

What do the screens show for `Clc1ccc(CC[C@H](Cn2ccnc2)Sc2c(Cl)cccc2Cl)cc1`?
TsaE inh: inactive

How did CC(=O)N1CCN(S(=O)(=O)c2ccc(S(=O)(=O)NCC(C)C)cc2)CC1 do in these assays?
Bst PK mod: >57; TsaE inh: inactive

What do the screens show for `COc1ccccc1OCCCn1c(=O)oc2ccc(C)cc21`?
Bst PK mod: >57; TsaE inh: inactive

What do the screens show for `COC(=O)CSc1nnc2n(-c3ccc(OC)cc3)c(=O)c3c4c(sc3n12)CCCCC4`?
Bst PK mod: >11

Results for C=CCn1c(N)cc(=O)nc1SCC(=O)NC(C)c1ccccc1 (stereo not drawn) ?
Bst PK mod: >57; TsaE inh: inactive

What do the screens show for `COc1cccc(CC(NC(C)=O)C(=O)NC2CCN(c3nc(C)cc(C)c3C#N)CC2)c1` (stereo not drawn)?
Bst PK mod: >57; TsaE inh: inactive

What do the screens show for `COc1ccc2c(c1)c(C(=O)CN1CCOCC1)c(C)n2C`?
Bst PK mod: >11

What do the screens show for `CC(=O)N1C(=O)C2(C(C#N)=C(N)Oc3cc(C)oc(=O)c32)c2ccccc21` (stereo not drawn)?
Bst PK mod: >57; TsaE inh: inactive

What do the screens show for `Cc1ccc(Cn2nnc(C(=O)Nc3cc(C)ccc3C)c2N)cc1`?
Bst PK mod: >57; TsaE inh: inactive

Results for CCOC(=O)c1c(C)[nH]c(C(=O)COC(=O)c2oc3ccc(OC)cc3c2C)c1C ?
Bst PK mod: >57; TsaE inh: inactive

Results for Cc1nnc2n(c1=O)C(CS(=O)(=O)c1ccccc1)CS2 (stereo not drawn) ?
Bst PK mod: >57; TsaE inh: inactive

Results for COC(=O)c1ccc(Oc2nc(Nc3ccccc3)nc(N(C)C)n2)cc1 ?
TsaE inh: inactive

How did CCN(CC)S(=O)(=O)c1ccc(C(=O)Nc2c3c(nn2C(C)(C)C)CS(=O)(=O)C3)cc1 do in these assays?
Bst PK mod: >57; TsaE inh: inactive

How did Nc1ncnc2c1ncn2[C@H]1O[C@@H](C(=O)O)[C@@H](O)[C@H]1O do in these assays?
TsaE inh: inactive

What do the screens show for `O=C(CN1CCCCCC1=O)OCc1ncc(-c2ccccc2)o1`?
Bst PK mod: >57; TsaE inh: inactive

Results for C=CCn1c(CSc2nc3ccccc3s2)nnc1SCC(=O)OCC ?
TsaE inh: inactive

Results for CCCOc1ccc(CSc2nnc(CCC)n2N)cc1 ?
Bst PK mod: >57; TsaE inh: inactive

How did Cc1ccc(Nc2nc(Oc3ccc(OCc4ccccc4)nn3)nc(N3CCOCC3)n2)cc1 do in these assays?
Bst PK mod: >57; TsaE inh: inactive

What do the screens show for `COc1cccc2cc(C(=O)N3CCC(C)CC3)c(=O)oc12`?
TsaE inh: inactive

Results for COC(=O)c1ccccc1N(C)C(=O)C12CCC(C)(C(=O)O1)C2(C)C (stereo not drawn) ?
Bst PK mod: >57; TsaE inh: inactive

How did COC(=O)c1ccsc1NC(=O)CN1CCN(c2ccc(F)cc2)CC1 do in these assays?
Bst PK mod: >57; TsaE inh: inactive

Results for O=C(Nc1c(C(=O)N2CCOCC2)cnn1-c1ccccc1Cl)c1ccco1 ?
Bst PK mod: >57; TsaE inh: inactive

What do the screens show for `C=CCN(CC=C)c1nc2ccccc2nc1C(C#N)C(=O)OCCOC` (stereo not drawn)?
Bst PK mod: >57; TsaE inh: inactive

How did Clc1ccc(CSc2nnc([C@@H]3CCCN3)o2)cc1Cl do in these assays?
TsaE inh: inactive

Results for COC(=O)C1=C(N)Oc2cc(C)n(CC3CCCO3)c(=O)c2C1c1ccc(Cl)cc1 (stereo not drawn) ?
Bst PK mod: >57; TsaE inh: inactive

Results for CC1(C)CC(=O)C=C(NC2CCS(=O)(=O)C2)C1 (stereo not drawn) ?
Bst PK mod: >57; TsaE inh: inactive

Results for COC(=O)c1[nH]c2ccc(Cl)cc2c1NC(=O)CN1CCC(C(N)=O)CC1 ?
TsaE inh: inactive

How did O=[N+]([O-])c1ccc2nc[nH]c2c1 do in these assays?
TsaE inh: inactive

How did O=C(c1ccccc1)c1coc2ccc(O)c(CN3CCOCC3)c12 do in these assays?
Bst PK mod: >57; TsaE inh: inactive

How did COc1ccc(CNC(=O)C2CCN(S(=O)(=O)c3c(C)n[nH]c3C)CC2)cc1 do in these assays?
Bst PK mod: >57; TsaE inh: inactive

Results for CCSc1nnc(NC(=O)c2csc(C)c2)s1 ?
Bst PK mod: >57; TsaE inh: inactive

How did Cc1ccc(C)c(N(C(=O)CCC(=O)Nc2cc(C)on2)C(C(=O)NC2CCCC2)c2ccco2)c1 (stereo not drawn) do in these assays?
Bst PK mod: >57; TsaE inh: inactive

How did O=S(=O)(Nc1ccc2c(c1)nc1n2CCN(Cc2ccccc2)C1)c1ccc(F)cc1 do in these assays?
Bst PK mod: >57; TsaE inh: inactive

How did NC(=O)c1ccc(C2SCC(=O)N2Cc2ccccc2)cc1 (stereo not drawn) do in these assays?
Bst PK mod: >57; TsaE inh: inactive

Results for COc1ccc(C(=O)Nc2nc(-c3cccs3)cs2)cc1 ?
Bst PK mod: inconclusive; TsaE inh: inactive

How did Cn1c(=O)c2c(nc(NCCCO)n2C/C=C/c2ccccc2)n(C)c1=O do in these assays?
Bst PK mod: >57; TsaE inh: inactive

What do the screens show for `COc1cc(C2C3C(=O)N(c4ccc(F)cc4)C(=O)C3ON2c2ccccc2)ccc1O` (stereo not drawn)?
Bst PK mod: >26

What do the screens show for `COC(=O)COc1ccc(S(=O)(=O)NCC2CCCO2)cc1Cl` (stereo not drawn)?
Bst PK mod: >57; TsaE inh: inactive

Results for CN1CCc2cc(Cl)c(O)cc2[C@H](c2ccccc2)C1 ?
TsaE inh: inactive

What do the screens show for `COc1ccc(C(=O)C(CO)Oc2ccccc2OC)cc1OC` (stereo not drawn)?
Bst PK mod: >57; TsaE inh: inactive

Results for CCCS(=O)(=O)N1CCN(Cc2ccccc2C(F)(F)F)CC1 ?
Bst PK mod: >57; TsaE inh: inactive

What do the screens show for `CCOC(=O)N1CCN(S(=O)(=O)Cc2ccccc2)CC1`?
Bst PK mod: >57; TsaE inh: inactive

How did COc1ccc(-c2nc(C#N)c(N3CC(C)OC(C)C3)o2)cc1OC (stereo not drawn) do in these assays?
Bst PK mod: >57; TsaE inh: inactive

How did [O-]/[N+](=C/c1cccnc1)c1ccc(Br)cc1 do in these assays?
TsaE inh: inactive

Results for COc1cccc(NC(=O)Cn2cnc3sc(C)c(S(=O)(=O)N4CCN(C)CC4)c3c2=O)c1 ?
Bst PK mod: >57; TsaE inh: inactive

Results for CC1CSc2nnc(CCc3ccccc3)n21 (stereo not drawn) ?
TsaE inh: inactive

What do the screens show for `COc1ccc(C2(C(=O)NCCCN3CCOCC3)CCOCC2)cc1`?
Bst PK mod: >57; TsaE inh: inactive

Results for FC(F)(F)c1ccccc1-c1nc(-n2ccnc2)c2ccccc2n1 ?
TsaE inh: inactive

How did Cc1ccc(Cl)cc1N1CCN(C(=O)C2CCC(=O)N2C(C)C)CC1 (stereo not drawn) do in these assays?
TsaE inh: inactive

What do the screens show for `COc1ccccc1N1CCN(C(=O)CSc2nc3ccccc3c(=O)n2CC2CCCO2)CC1` (stereo not drawn)?
Bst PK mod: >57; TsaE inh: inactive

What do the screens show for `CCOc1ccc2nc(NC(=O)C3CCCN(S(=O)(=O)c4cccs4)C3)sc2c1` (stereo not drawn)?
Bst PK mod: >57; TsaE inh: inactive

Results for Cn1c(C(=O)NCC2CCCO2)cc2c(=O)[nH]c3ccccc3c21 (stereo not drawn) ?
Bst PK mod: inconclusive; TsaE inh: inactive

What do the screens show for `S=C1SCN(C2CCCCCCCCCCC2)CN1C1CCCCCCCCCCC1`?
TsaE inh: inactive

What do the screens show for `COc1cc(NC(=O)c2ccco2)c(OC)cc1NC(=O)Nc1cccc(Cl)c1`?
Bst PK mod: >57; TsaE inh: inactive

Random excerpt: 6 records from the list
How did CC(=O)N1CCN(S(=O)(=O)c2ccc(S(=O)(=O)NCC(C)C)cc2)CC1 do in these assays?
Bst PK mod: >57; TsaE inh: inactive

Results for CCCOc1ccc(CSc2nnc(CCC)n2N)cc1 ?
Bst PK mod: >57; TsaE inh: inactive

Results for CCCS(=O)(=O)N1CCN(Cc2ccccc2C(F)(F)F)CC1 ?
Bst PK mod: >57; TsaE inh: inactive

What do the screens show for `COc1ccc(C2(C(=O)NCCCN3CCOCC3)CCOCC2)cc1`?
Bst PK mod: >57; TsaE inh: inactive

How did Cc1ccc(C)c(N(C(=O)CCC(=O)Nc2cc(C)on2)C(C(=O)NC2CCCC2)c2ccco2)c1 (stereo not drawn) do in these assays?
Bst PK mod: >57; TsaE inh: inactive

How did CCOc1ccc(N2C(=O)NC(Cc3c[nH]c4ccccc34)C2=O)cc1 (stereo not drawn) do in these assays?
Bst PK mod: >57; TsaE inh: inactive

For reference, 2 of the compounds above.
Results for O=C(CCCn1c(=S)[nH]c2cc3c(cc2c1=O)OCO3)N1CCN(c2ccc(Cl)cc2)CC1 ?
Bst PK mod: >57; TsaE inh: inactive

Results for CCCC(C)CO (stereo not drawn) ?
TsaE inh: inactive

Further records follow:
Results for CC(=O)Nc1ccccc1C(=O)N1CCc2ccccc21 ?
Bst PK mod: >57; TsaE inh: inactive

How did Cn1c(COc2ccccc2)nnc1SCc1cc(=O)[nH]c2ccccc12 do in these assays?
Bst PK mod: >57; TsaE inh: inactive

How did CCn1c(SC/C=C/c2ccccc2)nnc1-c1cccs1 do in these assays?
Bst PK mod: >57; TsaE inh: inactive

What do the screens show for `CC1CCCCC1NS(=O)(=O)c1ccc(-n2cnnn2)cc1` (stereo not drawn)?
Bst PK mod: >57; TsaE inh: inactive

Results for Cn1c(Cc2ccccc2)nnc1SCC(=O)N1CCN(c2ccccc2)CC1 ?
TsaE inh: inactive

How did CN1CCN(CCCNC(=O)c2cc3c(=O)n(C)c4ccccc4c3s2)CC1 do in these assays?
TsaE inh: inactive

How did CCn1c(SCC(=O)Nc2nc(C)c(C)s2)nnc1-c1cccnc1 do in these assays?
Bst PK mod: >57; TsaE inh: inactive

What do the screens show for `Cc1ccc(C)c2[nH]c(=O)c(C(c3nnnn3C3CCCC3)N3CCOCC3)cc12` (stereo not drawn)?
Bst PK mod: >57; TsaE inh: inactive

How did COc1ccc(C(CNC(=O)COc2ccccc2C#N)N2CCOCC2)cc1 (stereo not drawn) do in these assays?
Bst PK mod: >57; TsaE inh: inactive

How did Cc1nc2cnc(N3CCOCC3)nc2n(CCC#N)c1=O do in these assays?
TsaE inh: inactive

What do the screens show for `Clc1ccc2nc(CN3CCCc4ccccc43)cn2c1`?
Bst PK mod: >57; TsaE inh: inactive

Results for CCCNC(=O)Cn1cccc1C(=O)c1ccccc1 ?
Bst PK mod: >57; TsaE inh: inactive

Results for COc1cc(OC)c(C2N(C)c3ccccc3N2C)cc1OC ?
TsaE inh: inactive

The list is partial; the hit share may differ from the screen's.
